Assay outcomes as filed in PubChem.
Methyltransferases = Primary Screen for Target Class Profiling of Small Molecule Inhibitors of Methyltransferases; purified enzyme, MTase-Glo SAH luminescence; stronger effect = lower value; calls only at 40 µM; 3.9% of 25,000 active; active = -50% or lower on at least one of six enzymes; inconclusive = the cases between; inactive = as a rule above -30% on all six;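 note: enzymes were COMT GAMT GNMT HNMT NNMT and PNMT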
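Each enzyme was assayed with SAM and its substrate. SAH formation detected by MTase-Glo luminescence; single-point 40 uM screen[…].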
Calls only; ! = a repeat was not active. % is set by controls: 0 for no effect and ±100 for the full control effect. An excerpt; the hit share may differ from the screen's.

A first look (twelve entries):
Results for CCCCN1C(=O)c2cc(C(=O)Nc3ccc(OCC)cc3)nn2CC1(C)C(=O)NC1CCCC1 (stereo unspecified) ?
Methyltransferases: inactive

Results for O=C(Cn1nc(-c2ccccc2)c2ccccc21)N1CCN(c2ccc(F)cc2)CC1 ?
Methyltransferases: inactive

Results for O=c1c2c(nc3cc[nH]n13)CN(S(=O)(=O)c1cccc(C(F)(F)F)c1)CC2 ?
Methyltransferases: inactive

How did C[C@]1(O)CCN(C(=O)CCS(=O)(=O)c2ccccc2)C[C@@H]1O do in these assays?
Methyltransferases: inactive

What do the screens show for `CC1(C(=O)NC2CCCC2)Cn2c(cc3ccccc32)C(=O)N1CCCN1CCOCC1` (stereo unspecified)?
Methyltransferases: inactive

What do the screens show for `O=C(COc1ccccc1)NCCn1cccc1-c1nc(-c2ccc3c(c2)OCO3)no1`?
Methyltransferases: inactive

What do the screens show for `CCCn1c(=O)c2cc(Cl)ccc2n2c(=O)n(CC(=O)Nc3cc(OC)cc(OC)c3)nc12`?
Methyltransferases: inactive

How did COC(=O)c1cc2n(n1)CC(C)(C(=O)NC1CCCCC1)N(Cc1ccc(OC)cc1OC)C2=O (stereo unspecified) do in these assays?
Methyltransferases: inactive

What do the screens show for `O=C(C1CCc2nnc(-c3ccc(Cl)cc3Cl)n21)N1CCCC1` (stereo unspecified)?
Methyltransferases: inactive

Results for CC(C)CCn1c(=O)c2ccccc2n2c(CCC(=O)NCc3ccccc3Cl)nnc12 ?
Methyltransferases: inactive

Results for CCOc1ccc(CN2C(=O)c3cc4sccc4n3CC2(C)C(=O)NC2CCCC(C)C2C)cc1 (stereo unspecified) ?
Methyltransferases: inactive

Results for Cc1ccc(OCCC2CCN(C(=O)c3cc(CN4CCOCC4)on3)C2)cc1 (stereo unspecified) ?
Methyltransferases: inactive

Results, previewed entries included:
Results for CCCCN1C(=O)c2cc(C(=O)Nc3ccc(OCC)cc3)nn2CC1(C)C(=O)NC1CCCC1 (stereo unspecified) ?
Methyltransferases: inactive

Results for O=C(Cn1nc(-c2ccccc2)c2ccccc21)N1CCN(c2ccc(F)cc2)CC1 ?
Methyltransferases: inactive

Results for O=c1c2c(nc3cc[nH]n13)CN(S(=O)(=O)c1cccc(C(F)(F)F)c1)CC2 ?
Methyltransferases: inactive

How did C[C@]1(O)CCN(C(=O)CCS(=O)(=O)c2ccccc2)C[C@@H]1O do in these assays?
Methyltransferases: inactive

What do the screens show for `CC1(C(=O)NC2CCCC2)Cn2c(cc3ccccc32)C(=O)N1CCCN1CCOCC1` (stereo unspecified)?
Methyltransferases: inactive

What do the screens show for `O=C(COc1ccccc1)NCCn1cccc1-c1nc(-c2ccc3c(c2)OCO3)no1`?
Methyltransferases: inactive

What do the screens show for `CCCn1c(=O)c2cc(Cl)ccc2n2c(=O)n(CC(=O)Nc3cc(OC)cc(OC)c3)nc12`?
Methyltransferases: inactive

How did COC(=O)c1cc2n(n1)CC(C)(C(=O)NC1CCCCC1)N(Cc1ccc(OC)cc1OC)C2=O (stereo unspecified) do in these assays?
Methyltransferases: inactive

What do the screens show for `O=C(C1CCc2nnc(-c3ccc(Cl)cc3Cl)n21)N1CCCC1` (stereo unspecified)?
Methyltransferases: inactive

Results for CC(C)CCn1c(=O)c2ccccc2n2c(CCC(=O)NCc3ccccc3Cl)nnc12 ?
Methyltransferases: inactive

Results for CCOc1ccc(CN2C(=O)c3cc4sccc4n3CC2(C)C(=O)NC2CCCC(C)C2C)cc1 (stereo unspecified) ?
Methyltransferases: inactive

Results for Cc1ccc(OCCC2CCN(C(=O)c3cc(CN4CCOCC4)on3)C2)cc1 (stereo unspecified) ?
Methyltransferases: inactive

Results for CCN1C(=O)c2c(C(=O)NCCCc3ccccc3)ncn2CC1(C)C(=O)NC1CCCC1 (stereo unspecified) ?
Methyltransferases: inactive

How did CNS(=O)(=O)c1ccc(Cl)c(-c2nnc(-c3ccccc3)o2)c1 do in these assays?
Methyltransferases: inactive

What do the screens show for `C/C(=C/CCC(CO)C1CCC2(C)C3CCC4C(C)(C)C(OC5OC(CO)C(O)C(O)C5O)CC(O)C45CC35CCC12C)COC1OC(CO)C(O)C(O)C1O` (stereo unspecified)?
Methyltransferases: inactive

Results for CCCCC[C@H](CC(=O)NO)C(=O)N[C@H](C(=O)N1CCC[C@H]1CO)C(C)C ?
Methyltransferases: inactive

Results for CC(C)NC(=O)c1ccc2c(=O)n(Cc3ccccc3)c3nnc(SCC(=O)NC(C)(C)C)n3c2c1 ?
Methyltransferases: inactive

What do the screens show for `COC(=O)C1=CO[C@@H](O)[C@@H]2C(CO)=CC[C@H]12`?
Methyltransferases: inconclusive

What do the screens show for `COC(=O)CNC(=O)c1nc(-c2ccc(Cl)nc2)c2ccccn12`?
Methyltransferases: inactive

Results for CCc1cccc(NS(=O)(=O)c2ccc3[nH]c4c(c3c2)CCCC4)c1 ?
Methyltransferases: inactive

How did CC(C)OCCCn1c(=O)c2ccccc2n2c(-c3ccc(O)cc3)nnc12 do in these assays?
Methyltransferases: inactive

Results for CC1CCCN(C(=O)c2coc(COc3cccc(F)c3F)n2)C1 (stereo unspecified) ?
Methyltransferases: inactive

Results for Cc1ccccc1CN1C(=O)c2ccc(-c3ccco3)n2CC1(C)C(=O)NC1CCC(C)CC1 (stereo unspecified) ?
Methyltransferases: inactive

What do the screens show for `C=C1CC23CCC4[C@@](C)(CCC[C@@]4(C)C(=O)O)C2CCC1C3` (stereo partly specified)?
Methyltransferases: inactive

What do the screens show for `COc1ccc(-c2cc3n(n2)CC(C)(C(=O)NCc2ccccc2OC)N(Cc2ccc(C)cc2)C3=O)cc1` (stereo unspecified)?
Methyltransferases: inactive

What do the screens show for `C/C(=C\CC[C@H](CO)[C@@H]1CC[C@]2(C)C3=C(CC[C@@]12C)[C@@]1(C)CCC(=O)C(C)(C)C1CC3)C(=O)O` (stereo partly specified)?
Methyltransferases: inactive

Results for COc1ccc(-c2cc(C[C@H]3CNCC[C@H]3CC(=O)N3CCOCC3)no2)cc1 ?
Methyltransferases: inactive

Results for CCc1ccccc1NC(=O)N1CCn2cccc2C1C(C)C (stereo unspecified) ?
Methyltransferases: inactive

Results for COC(=O)[C@H]1CCCN1C(=O)[C@@H]1C[C@@H](NS(=O)(=O)c2cccs2)CCN1C(=O)COCC(=O)O ?
Methyltransferases: inactive

How did CCOc1ccc(-c2cc3n(n2)CC(C)(C(=O)NC2CCCCC2)N(c2ccc(F)cc2)C3=O)cc1 (stereo unspecified) do in these assays?
Methyltransferases: inactive

What do the screens show for `COc1cccc2c1OCC(C(=O)N1C[C@@H]3[C@H](C1)[C@H]1CC[C@@H]3O1)C2` (stereo partly specified)?
Methyltransferases: inactive

What do the screens show for `C[C@@]1(C(=O)O)CCC[C@@]2(C)C3=CC[C@H]4C[C@@]3(CC[C@H]12)CC4(O)CO` (stereo partly specified)?
Methyltransferases: inactive

How did CC(C)CNC(=O)c1ccc2c(=O)n(Cc3ccccc3)c3nn(Cc4cccc(F)c4)c(=O)n3c2c1 do in these assays?
Methyltransferases: inactive

How did Cc1nc(CC(=O)NC(C)c2cnn(-c3ccccc3)c2C)cs1 (stereo unspecified) do in these assays?
Methyltransferases: inactive

How did CSc1ccc(CNC(=O)c2cc3n(n2)CC(C)(C(=O)NCc2ccccc2)N(C)C3=O)cc1 (stereo unspecified) do in these assays?
Methyltransferases: inactive

How did CC(O)(CC(=O)O)CC(=O)OCc1ccc(O[C@@H]2O[C@H](CO)[C@@H](O)[C@H](O)[C@H]2O)cc1 (stereo partly specified) do in these assays?
Methyltransferases: active

What do the screens show for `CC1CCCCC1NC(=O)C1(C)Cn2c(cc3sccc32)C(=O)N1Cc1ccccc1F` (stereo unspecified)?
Methyltransferases: inactive

Results for CCOC(=O)c1cc2n(n1)CC(C)(C(=O)NC1CCCCC1)N(Cc1ccccc1OCC)C2=O (stereo unspecified) ?
Methyltransferases: inactive

Results for O=C(CCc1nnc2n(Cc3ccccc3)c(=O)c3ccccc3n12)NCCN1CCCC1 ?
Methyltransferases: inactive

Results for Cc1ccc(CNC(=O)CSc2nnc3n(CCc4ccccc4)c(=O)c4ccccc4n23)cc1 ?
Methyltransferases: inactive

Results for CC1CCN(S(=O)(=O)c2ccc3c(ccn3CCC(=O)N3CCc4ccccc43)c2)CC1 ?
Methyltransferases: inactive

What do the screens show for `CC(CCc1ccccc1)NC(=O)c1cc2n(n1)CC(C)(C(=O)NC1CCCCC1)N(C)C2=O` (stereo unspecified)?
Methyltransferases: inactive

What do the screens show for `CC1(C(=O)NC2CCCCCC2)Cn2c(nc3ccccc32)C(=O)N1Cc1ccccc1F` (stereo unspecified)?
Methyltransferases: inactive

What do the screens show for `CCOC(=O)C12CC1/C(=N/O)c1ccccc1O2` (stereo unspecified)?
Methyltransferases: inactive

What do the screens show for `CCCn1c(=O)c2ccc(C(=O)NC(C)CC)cc2n2c(SCC(=O)Nc3ccc(C)c(C)c3)nnc12` (stereo unspecified)?
Methyltransferases: inactive

How did COc1ccc(-c2nnc(-c3ccc(OC)c(S(=O)(=O)N4CCOCC4)c3)o2)cc1OC do in these assays?
Methyltransferases: inactive

Results for CN(C)C(=O)CN1CCCC(N2CCN(c3cccc(C(F)(F)F)c3)CC2)C1 (stereo unspecified) ?
Methyltransferases: inactive

How did CC1(C(=O)NC2CCCCC2)Cn2c(cc3occc32)C(=O)N1Cc1ccc(F)cc1 (stereo unspecified) do in these assays?
Methyltransferases: inactive

Results for O=C(NCC1CCCO1)c1cc(-c2ccccc2F)cc2c1OCCN2Cc1cccnc1 (stereo unspecified) ?
Methyltransferases: inactive

What do the screens show for `O=C(COc1cc(O)c2c(=O)cc(-c3ccccc3)oc2c1)c1ccc(F)cc1`?
Methyltransferases: inactive

Results for CCOc1ccc(CCN2C(=O)c3cc4ccccc4n3CC2(C)C(=O)NCCC(C)C)cc1OCC (stereo unspecified) ?
Methyltransferases: inactive

What do the screens show for `CCOC(=O)c1cc2n(n1)CC(C)(C(=O)NC1CCCCCC1)N(c1ccc(Cl)cc1C)C2=O` (stereo unspecified)?
Methyltransferases: inactive

How did CC1(C(=O)NC2CCCCC2)Cn2c(cc3sccc32)C(=O)N1C1CCCC1 (stereo unspecified) do in these assays?
Methyltransferases: inactive

Results for CN(C)CCC(c1ccc(Br)cc1)c1ccccn1 (stereo unspecified) ?
Methyltransferases: inactive

Results for O=C1CCN(C(=O)[C@H](Cc2ccccc2)NC(=O)c2ccoc2)CCCOCCN1 ?
Methyltransferases: inactive

Results for CCCN(C)C(=O)CC1COCCN1C(=O)Nc1cccc(SC)c1 (stereo unspecified) ?
Methyltransferases: inactive

Results for O=C(Nc1ccc(F)cc1)N1CCc2ccccc2C1c1ccc(C(F)(F)F)cc1 (stereo unspecified) ?
Methyltransferases: inconclusive

What do the screens show for `CCCc1nc(C(=O)NC(CC)c2ccc(S(C)(=O)=O)cc2)cs1` (stereo unspecified)?
Methyltransferases: inactive

What do the screens show for `COc1cccc(NC(=O)N2Cc3c(sc4c3CCCC4)-n3cccc3C2C)c1` (stereo unspecified)?
Methyltransferases: inactive

What do the screens show for `C[C@@H](NCC1CCCC1)c1onc(-c2ccc(Cl)cc2)c1C(=O)O`?
Methyltransferases: inactive

How did COc1ccc(-c2nnc3n(Cc4ccccc4Cl)c(=O)c4ccccc4n23)c(OC)c1 do in these assays?
Methyltransferases: inactive

How did COc1ccccc1CNC(=O)C1c2c(n(C)c3ccccc23)SCC(=O)N1c1ccccc1F (stereo unspecified) do in these assays?
Methyltransferases: inactive

What do the screens show for `O=C(Nc1ccccc1-c1cn2c(CN3CCNCC3)csc2n1)c1cnc2ccccc2n1`?
Methyltransferases: active!

How did CCCn1c(=O)c2cc(F)ccc2n2c(SCC(=O)Nc3ccc(F)cc3)nnc12 do in these assays?
Methyltransferases: inactive

Results for Cn1c2c(c3ccccc31)C(C(=O)NCc1ccc(F)cc1)N(c1cccc(C(F)(F)F)c1)C(=O)CS2 (stereo unspecified) ?
Methyltransferases: inactive

How did C1CCC[C@H]2CCCN3CC[C@H](CCCCCC[C@@H]4CCCN5CC[C@H](CC1)O[C@H]45)O[C@H]23 do in these assays?
Methyltransferases: inconclusive

How did Cc1cccc(-c2[nH]ncc2-c2ccnc3ccccc23)n1 do in these assays?
Methyltransferases: inactive

Results for COc1ccc(OC)c(-c2nnc3n(Cc4ccc(F)cc4)c(=O)c4ccccc4n23)c1 ?
Methyltransferases: inactive

Results for O=C(NCCN1CCCC1)C1CCN(c2cnn(CC3CC3)c(=O)c2)C1 (stereo unspecified) ?
Methyltransferases: inactive

How did C/C=C(/C)C(=O)O[C@@H]1C[C@@H](OC(=O)/C(C)=C\C)[C@@]2(C)C3C(=O)C=C(C)C2C3C1(C)C do in these assays?
Methyltransferases: inactive

What do the screens show for `COc1cccc(Cn2nc3n(C(C)C)c(=O)c4ccc(C(=O)NC5CCCCC5)cc4n3c2=O)c1`?
Methyltransferases: inactive

Results for O=C(CCC1CCN(S(=O)(=O)c2ccc(F)cc2)CC1)NC1CCCC1 ?
Methyltransferases: inactive

Results for CC(C)CCNC(=O)N1CCn2cccc2C1C(C)C (stereo unspecified) ?
Methyltransferases: inactive

How did Cc1ccccc1CN1C(=O)c2ccc(-c3ccccc3)n2CC1(C)C(=O)NC1CCC(C)CC1 (stereo unspecified) do in these assays?
Methyltransferases: inactive

How did C=C1CCC2C(C)(C(=O)O)CCCC2(C)C1CC/C(=C\CO)CO (stereo unspecified) do in these assays?
Methyltransferases: inactive

How did O=C(CCc1nnc2n(Cc3ccccc3Cl)c(=O)c3ccccc3n12)NC1CCCCC1 do in these assays?
Methyltransferases: inactive

What do the screens show for `O=C1NCCCCCCN(C(=O)c2ccco2)[C@H]2C[C@H](c3nc(-c4cnccn4)no3)C[C@@H]12`?
Methyltransferases: inactive

How did C=C1CCC2(OC1)OC1CC3C4CC=C5CC(O)CC(O[C@@H]6OC[C@H](OC(=O)C(O)C(C)CC)[C@H](O)[C@H]6O[C@@H]6O[C@@H](C)[C@H](O)[C@@H](O)[C@H]6O)C5(C)C4CCC3(C)C1C2C (stereo partly specified) do in these assays?
Methyltransferases: inactive

Results for COc1cccc(N2CCN(S(=O)(=O)c3ccc4[nH]c5c(c4c3)CCCC5)CC2)c1 ?
Methyltransferases: inactive
